nsP2pro inh: Primary qHTS for inhibitors of NSP2Pro chikungunya virus (CHIKV) | Polyprotein P1234 (Chikungunya virus (strain S27-African prototype)), Q8JUX6 | FRET peptide cleavage, nsP2pro, fluorescence 1 h | Potency, µM (series often up to 24.9 µM), without a hit: at the top dose activity change, negative = inhibition, most hits filed as inhibitors | AID 1964107, 2024 | hit rate 1.1% among 31,000; active means well fitted inhibition curve with a large enough effect; inconclusive means small, poorly fitted or top-dose-only effect; inactive means no such curve, though single readings can be large or run the other way; note: nearly all actives have a fitted effect of over 60% in size; a reference inhibitor and vehicle were the controls
Target sequence (Q8JUX6 whole entry, looked up): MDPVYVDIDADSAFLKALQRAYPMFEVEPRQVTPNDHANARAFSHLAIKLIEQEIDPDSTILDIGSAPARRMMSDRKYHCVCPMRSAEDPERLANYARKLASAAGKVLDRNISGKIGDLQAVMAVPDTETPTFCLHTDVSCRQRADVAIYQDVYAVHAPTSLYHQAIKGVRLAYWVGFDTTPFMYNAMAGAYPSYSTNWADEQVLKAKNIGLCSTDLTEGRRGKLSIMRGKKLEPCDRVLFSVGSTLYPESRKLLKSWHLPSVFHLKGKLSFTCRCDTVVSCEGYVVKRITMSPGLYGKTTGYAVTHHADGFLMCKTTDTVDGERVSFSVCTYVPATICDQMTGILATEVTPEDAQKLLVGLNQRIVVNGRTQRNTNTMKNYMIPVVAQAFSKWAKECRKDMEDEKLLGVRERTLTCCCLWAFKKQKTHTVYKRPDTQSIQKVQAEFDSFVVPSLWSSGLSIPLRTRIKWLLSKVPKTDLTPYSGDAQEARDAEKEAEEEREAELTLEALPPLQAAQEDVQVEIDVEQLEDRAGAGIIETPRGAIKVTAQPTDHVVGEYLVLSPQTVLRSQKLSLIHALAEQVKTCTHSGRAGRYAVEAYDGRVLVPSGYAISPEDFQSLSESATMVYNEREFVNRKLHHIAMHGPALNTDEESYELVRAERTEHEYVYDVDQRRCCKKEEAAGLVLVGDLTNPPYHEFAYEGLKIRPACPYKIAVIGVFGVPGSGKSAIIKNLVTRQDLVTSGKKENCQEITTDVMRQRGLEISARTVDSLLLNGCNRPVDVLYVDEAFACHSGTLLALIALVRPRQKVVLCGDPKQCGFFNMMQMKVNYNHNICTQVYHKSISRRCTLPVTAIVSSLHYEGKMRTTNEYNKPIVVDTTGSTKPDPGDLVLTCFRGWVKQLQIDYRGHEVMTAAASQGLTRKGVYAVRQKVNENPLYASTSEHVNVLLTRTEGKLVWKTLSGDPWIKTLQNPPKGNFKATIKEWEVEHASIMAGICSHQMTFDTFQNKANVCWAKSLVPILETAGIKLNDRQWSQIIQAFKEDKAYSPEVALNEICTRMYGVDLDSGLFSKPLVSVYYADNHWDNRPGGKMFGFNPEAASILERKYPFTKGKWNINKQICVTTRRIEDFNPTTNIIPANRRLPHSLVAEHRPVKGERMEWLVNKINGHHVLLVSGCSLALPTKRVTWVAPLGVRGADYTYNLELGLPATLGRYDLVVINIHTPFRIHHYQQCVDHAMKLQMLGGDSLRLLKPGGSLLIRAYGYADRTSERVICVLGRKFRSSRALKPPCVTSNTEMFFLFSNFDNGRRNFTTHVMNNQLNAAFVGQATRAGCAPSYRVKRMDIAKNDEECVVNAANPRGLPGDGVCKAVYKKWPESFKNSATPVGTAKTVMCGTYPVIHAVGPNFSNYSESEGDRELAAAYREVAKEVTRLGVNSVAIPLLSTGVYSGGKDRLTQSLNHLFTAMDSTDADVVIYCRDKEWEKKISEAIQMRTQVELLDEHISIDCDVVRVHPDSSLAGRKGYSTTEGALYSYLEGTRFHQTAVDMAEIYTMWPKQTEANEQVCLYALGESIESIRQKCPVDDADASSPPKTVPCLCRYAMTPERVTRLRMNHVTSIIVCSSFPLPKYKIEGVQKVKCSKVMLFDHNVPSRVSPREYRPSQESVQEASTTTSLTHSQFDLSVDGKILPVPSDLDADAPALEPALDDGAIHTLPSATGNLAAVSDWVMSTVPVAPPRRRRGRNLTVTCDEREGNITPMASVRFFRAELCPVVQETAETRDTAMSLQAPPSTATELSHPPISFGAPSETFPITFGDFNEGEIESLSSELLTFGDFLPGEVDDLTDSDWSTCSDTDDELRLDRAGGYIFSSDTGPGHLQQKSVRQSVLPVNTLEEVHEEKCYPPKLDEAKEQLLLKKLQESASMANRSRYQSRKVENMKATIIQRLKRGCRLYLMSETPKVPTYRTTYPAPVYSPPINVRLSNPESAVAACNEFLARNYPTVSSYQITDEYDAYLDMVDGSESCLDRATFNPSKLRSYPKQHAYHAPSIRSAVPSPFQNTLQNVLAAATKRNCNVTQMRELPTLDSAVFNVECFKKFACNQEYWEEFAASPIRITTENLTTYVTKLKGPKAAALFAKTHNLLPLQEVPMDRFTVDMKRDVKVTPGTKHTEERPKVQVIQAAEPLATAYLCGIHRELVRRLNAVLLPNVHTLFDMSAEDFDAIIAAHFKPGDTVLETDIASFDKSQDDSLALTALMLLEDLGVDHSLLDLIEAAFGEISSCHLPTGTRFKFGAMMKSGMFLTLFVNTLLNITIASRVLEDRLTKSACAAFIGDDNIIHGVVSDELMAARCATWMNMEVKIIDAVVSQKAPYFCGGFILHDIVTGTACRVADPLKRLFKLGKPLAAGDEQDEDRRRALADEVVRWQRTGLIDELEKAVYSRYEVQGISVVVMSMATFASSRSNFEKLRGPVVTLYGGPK
An asterisk follows results filed as active; i = inactive; ? = inconclusive; & = joins results of further samples; [ ] = another dose, or the depositor's remark. % is set by controls: 0 for no effect and ±100 for the full control effect; potency is the fitted concentration of half-maximal effect.

Start of the listing, in advance, three compounds:
SMILES	nsP2pro inh
CC(C)CC(=O)OC1OC=C(CO[C@@H]2O[C@H](CO)[C@@H](O)[C@H](O)[C@H]2O)C2CC(O)C(O)(CO)C12 (stereo partly drawn)	16.2%[10 µM]
CCOC(=O)c1cc(-c2ccccc2)n(-c2cccc(C(=O)Nc3cccc(SC)c3)c2)c1C	-4.6%
COc1ccc(-c2cc(C(F)(F)F)c(C#N)c(SCC(=O)Nc3ccccc3F)n2)cc1	-6.0%

Results, from the first entry:
SMILES	nsP2pro inh
CC(C)CC(=O)OC1OC=C(CO[C@@H]2O[C@H](CO)[C@@H](O)[C@H](O)[C@H]2O)C2CC(O)C(O)(CO)C12 (stereo partly drawn)	16.2%[10 µM]
CCOC(=O)c1cc(-c2ccccc2)n(-c2cccc(C(=O)Nc3cccc(SC)c3)c2)c1C	-4.6%
COc1ccc(-c2cc(C(F)(F)F)c(C#N)c(SCC(=O)Nc3ccccc3F)n2)cc1	-6.0%
Cn1c(=NC(=O)c2ccc(S(=O)(=O)N3CCCc4ccccc43)cc2)sc2cc(F)ccc21	-23.9%
O=C(Nc1ccc2ccccc2c1)Nc1nnc(Br)s1	?
CC(=O)OC1C(O)CC(O[C@@H]2O[C@H](CO)[C@@H](O)[C@H](O)[C@H]2O)C2CCC3C(=O)OC(c4ccoc4)CC3(C)C21 (stereo partly drawn)	?
Cc1ccc(NC(=O)CSc2nc(-c3ccco3)cc(C(F)(F)F)n2)c(C)c1	-20.0%
COc1ccccc1-n1cnc2cc(C(=O)N3CCCCC3)ccc21	-5.3%
CCc1ccc(NC(=O)CSC2=Nc3ccccc3C3=NC(CCC(=O)NCCc4ccccc4)C(=O)N23)cc1 (stereo not drawn)	-11.2%
COc1cccc(N2CCN(S(=O)(=O)c3ccc4c(c3)CCCN4C(C)=O)CC2)c1	?
CCOC(=O)N1CCC(NC)CC1	-14.2%[39.2 µM]
CCCC(=O)N(c1ccc2oc3c(c2c1)CCCC3)S(=O)(=O)c1cc(C)ccc1C	-18.6%
O=C(Nc1cccc(-c2nn3c(=O)cc(N4CCNCC4)nc3s2)c1)c1ccon1	i
Nc1nc(CCC(=O)N[C@@H]2[C@@H](Cc3ccccc3)[C@H]3OCC[C@@H]23)cs1	-1.5%
CCC(C)NC(=O)C1COC2(CCC(C)CC2)N1C(=O)c1cccc(C)c1 (stereo not drawn)	i
N#Cc1nc(Nc2cccc(Cl)c2)nc(NC2CCCC2)n1	i
CC(O)CCC1C(CO[C@@H]2O[C@H](CO)[C@@H](O)[C@H](O)[C@H]2O)CC(O)CC1(C)C (stereo partly drawn)	-9.0%
COc1ccc2c(c1)N1C(=O)C[C@@]34C=CC[N@+]5([O-])CC[C@H]2[C@H](CC3)[C@@]145	?
COc1ccc(-c2cc([C@H]3CN4CC[C@H]3C[C@@H]4COC(=O)Nc3ccccc3)n(C)n2)cc1	i
CCc1ccccc1N(C)C(=O)c1ccc2c(=O)n3c(nc2c1)CCCCC3	-22.5%
CN(C(=O)CN(CCO)CC(=O)N(C)C(C)(C)Cc1ccccc1)C(C)(C)Cc1ccccc1	75.0%&102.6%[activator]
CCC(CC)C(=O)N1CCc2cc(OC)c(OC)cc2C1COc1ccc2c(C)cc(=O)oc2c1 (stereo not drawn)	-15.5%
Cc1nnc(-c2cnn(C)c2N)n1CCc1ccccc1	-13.1%
CCOc1ccc(C2C(C(=O)Nc3ccccc3)=C(C)Nc3nc(SCc4cccc(OC)c4)nn32)cc1 (stereo not drawn)	?
CCc1ccc(-c2cc3c(N4CCN(c5ccccc5)CC4)nccn3n2)cc1	-17.9%
C=CCn1cc(CN(CC)Cc2ccc(OC)cc2)c(C)n1	i
CCOc1cc2c(cc1OCC)CN(C(=O)c1cc3sccc3n1Cc1ccccc1)CC2	4.1%
Cc1ccc(S(=O)(=O)Nc2cc([N+](=O)[O-])ccc2C(=O)Nc2nc(-c3ccccc3)cs2)cc1	i
O=C(CCc1cc2n(n1)CCCN(C(=O)CCc1ccsc1)C2)NC1CC1	1.7%
C[C@@H]1CN(C(=O)c2cnn(C)c2)CC[C@@]1(O)C1CCOCC1	i
CNC(=O)[C@@H](CC(C)C)N1CCC[C@H]1C(=O)NCCc1ccccn1	-14.1%[39.2 µM]
CC1(C)CC[C@]2(C(=O)O[C@@H]3O[C@H](CO)[C@@H](O)[C@H](O)[C@H]3O)CC[C@]3(C)C(=CCC4[C@@]5(C)C[C@@H](O)[C@H](O)[C@@](C)(CO)C5[C@H](O)C[C@]43C)C2C1 (stereo partly drawn)	54.2%[activator][10 µM]
Cc1cccc(N2CCN(C(=O)Cn3nc(C)c4sc5ccccc5c4c3=O)CC2C)c1 (stereo not drawn)	-8.8%
O=C(Nc1ccc(O)c(-c2nc3ccccc3o2)c1)c1cccs1	-9.8%
Cc1c(O)c(=O)ccn1C	-5.9%
Cc1cc2c(s1)c1cnn(Cc3ccc(-c4ccccc4)cc3)c(=O)c1n2C	i

Gathered by group: those above containing two or more sulfur atoms.
SMILES	nsP2pro inh
Cn1c(=NC(=O)c2ccc(S(=O)(=O)N3CCCc4ccccc43)cc2)sc2cc(F)ccc21	-23.9%
Cc1ccc(S(=O)(=O)Nc2cc([N+](=O)[O-])ccc2C(=O)Nc2nc(-c3ccccc3)cs2)cc1	i

(more compounds)
SMILES	nsP2pro inh
Cc1cc(C)nc(NC(=S)N2CCN(c3cc(Cl)cc(C(F)(F)F)c3)CC2)c1	-12.3%
Cc1cc(C)nc(NC(=S)N2CCN(c3cc4ccccc4cn3)CC2)c1	-4.9%
COC(=O)C[C@@H]1C(C(=O)O)=CO[C@@H](O[C@@H]2O[C@H](CO)[C@@H](O)[C@H](O)[C@H]2O)/C1=C\COC(=O)/C=C\c1ccccc1	-2.9%[10 µM]
CCN(C(=O)c1c(O)c2c(Cl)cccc2n(C)c1=O)c1ccccc1	-3.3%
O=C(NCc1ccncc1)c1nc2c(o1)CCN(CCCc1ccccc1)CC2	14.1µM*
Cn1cc(CN2C[C@H](C(=O)Nc3nccs3)C[C@@H]2c2cccc(C(F)(F)F)c2)cn1	i
CN(C)C/C=C/C(=O)Nc1cccc(C(=O)Nc2cccc(Nc3ncc(Cl)c(-c4c[nH]c5ccccc45)n3)c2)c1	38.6%[activator]
Cc1ccc(NC(=O)Cn2cc3c(n2)CCC(C)C3)cc1C (stereo not drawn)	?
COc1ccccc1N1CCN(C(=O)CCc2nnc3n(C)c(=O)c4sccc4n23)CC1	-7.2%
O=C(CCC1N=C2c3ccccc3N=C(SCc3cccc(F)c3)N2C1=O)NC1CCCCC1 (stereo not drawn)	-6.1%
CCCN(CCC)C(=O)c1c[nH]c2ccc(S(=O)(=O)N(C)c3ccc(Cl)cc3)cc2c1=O	-17.1%
COc1ccc(CCNc2nc3c(c(=O)n(C)c(=O)n3C)n2Cc2ccccc2Cl)cc1OC	-13.0%
CC(C)(O)CCc1cccc(C(=O)NCCCc2ccccn2)c1	4.9%
CN(C)C[C@@H]1CN(C2CCOCC2)C[C@H]1NC(=O)Cc1ccccc1Cl	3.3%
CSc1ccc(C(=O)N2C[C@@H](CN3CCN(C)CC3)[C@@H](CO)C2)cc1	i
COc1ccc(-n2cc(-c3ccc4c(c3)OCO4)n(CC(=O)Nc3cccc(C)c3)c2=O)cc1	?
Cc1ccc(-c2ccc(=O)n(CC(=O)N(C)[C@H](C)c3ccccc3)n2)cc1	0.4%
COc1cccc2cc(-c3nc(Nc4cccc(C)c4)sc3C)c(=O)oc12	-17.1%
COc1ccc(OC)c(CNC(=O)C(C)n2c(C)c3cnn(-c4ccccc4)c(=O)c3c2C)c1 (stereo not drawn)	-14.1%
CC(=O)N1CCCc2cc(S(=O)(=O)N3CCC(C(=O)NC4CCCCC4)CC3)ccc21	-23.2%
CC(=O)OCC[N+](C)(C)C	?
CCOC(=O)c1ccc(OCC2c3cc(OC)c(OC)cc3CCN2C(=O)Cc2ccc(OC)c(OC)c2)cc1 (stereo not drawn)	-10.4%
Cc1[nH]nc2c1C(c1c(F)cccc1F)C(C#N)=C(N)O2 (stereo not drawn)	-6.7%
CNc1cccc(CCOc2ccc3c(c2)CN(CC(F)(F)F)C(=O)[C@H](CC(=O)O)C3)n1	-8.8%
Fc1ccccc1-c1noc(N2CCCCC2)n1	2.4%
COCCCNC(=O)C(C)(C)Oc1nn(Cc2cccnc2)c2ccc(COC)cc12	-2.3%[39.2 µM]
CC(C)c1cc(C(=O)N2CC[C@H](CO)[C@H](O)C2)cs1	-4.7%
Cc1ccccc1CNC(=O)c1ccc2c(c1)N(Cc1ccccc1)CCS2	-6.7%
CCCCCNC(=O)c1c[nH]c2ccc(S(=O)(=O)N3CCC(C)CC3)cc2c1=O	-21.7%
CCn1nccc1C(=O)N1CCCC(c2nnc(CN3CCCC3)n2C)C1 (stereo not drawn)	-8.8%
O=C(Nc1ccc2nc(SCC(=O)N3CCCC3)sc2c1)c1ccccc1F	-10.6%
CN(Cc1ccco1)c1ncnc2ccc(-c3cccc(Cl)c3)cc12	?
CC(C)CCN1CCC2(COc3ccccc3C(=O)N2)C1 (stereo not drawn)	-2.9%[39.2 µM]
O=C(Nc1ccc(Cl)cc1)Nc1cccc(-c2cccc(N3CCCC3)n2)c1	1.7%
O=C(Cc1ccccc1)Nc1sc2c(c1C(=O)Nc1ccc(Cl)cc1)CCOC2	i
N#Cc1ccc(CN2CCCC3(CC(c4cccnc4)=NO3)C2)cc1 (stereo not drawn)	2.1%
COc1cccc(Cn2nnc3c(=O)[nH]c(C4CCN(C(=O)c5ccccc5Cl)CC4)nc32)c1	-11.1%
COc1ccc(-c2nnc3n2N=C(c2ccccc2OC)CS3)cc1	i
CC(C)(O)[C@@H]1CC[C@]2(CO)[C@@H](O)CC[C@](C)(O)[C@H]2[C@@H]1O[C@@H]1O[C@H](CO)[C@@H](O)[C@H](O)[C@H]1O	?
COc1cc(CN2CCN(c3noc(C(C)C)n3)CC2CCO)cc(OC)c1 (stereo not drawn)	i
Cn1c2ccsc2c2ncn(Cc3ccc(F)cc3)c(=O)c21	-6.1%
Cc1nc(N2CCOCC2)c2nc(-c3ccccc3)n(C(C)CN(C)C)c2n1 (stereo not drawn)	2.8%
Cn1cncc1C(=O)N1CCC2(CC1)CNC(C(=O)O)C2 (stereo not drawn)	-3.6%
CCCNc1ccc2ncc(-c3ccc4[nH]ncc4c3)n2n1	420.6%[activator]
CC1CC(O)CC(C)(C)C1(O)CCO (stereo not drawn)	-2.0%[39.2 µM]
Cc1ccc(-n2nc3c(N4CCCC(C(=O)NCc5ccccc5C)C4)nnc(C)c3c2C)cc1 (stereo not drawn)	3.1%&-9.5%
COc1ccc(C2Nc3ccccc3C(=O)N2Cc2ccco2)cc1COc1ccccc1 (stereo not drawn)	-17.7%
COc1ccc(/C=C/C(=O)O[C@H]2[C@H](O[C@H]3[C@@H]4C=CO[C@@H](O[C@@H]5O[C@H](CO)[C@@H](O)[C@H](O)[C@H]5O)[C@@H]4[C@@]4(CO)O[C@@H]34)O[C@@H](C)[C@H](O)[C@H]2OC(C)=O)cc1	-10.2%[10 µM]
O=C(Cn1cc(SCc2cccc(Cl)c2)c2ccccc21)N1CCOCC1	-18.6%
O=C1CCc2cc(S(=O)(=O)Nc3ccc4ncccc4c3)ccc2N1	i
CNC(=O)COc1ccc(NC(=O)c2ccc(-c3nn(C)c(=O)c4ccccc34)cc2)cc1	-14.4%
CCCCNC(=O)CN1C(=O)c2cccnc2Sc2ccccc21	-16.4%
CC(=O)N1CCC(C2CCN(C(C)=O)C2)CC1 (stereo not drawn)	i
Cc1cc(/C=C/c2ccc3cc(N(C)C)ccc3[n+]2C)c(C)n1-c1ccccc1	-32.3%
Nc1ccc([As](=O)(O)O)cc1	-5.3%
CNCC(O)c1ccc(O)cc1 (stereo not drawn)	?
C=C1CCc2occ(C)c2[C@H]2[C@H]1[C@@]13O[C@@]1(C[C@@H](C)[C@H]3OC(C)=O)[C@H]1O[C@@]21C	0.1%
O=C(Nc1ccccc1)c1ccc(Nc2nnc(-c3ccc(O)cc3)c3ccccc23)cc1	?
CCOc1ccc(Nc2c(S(=O)(=O)c3ccccc3)cnc3ccc(F)cc23)cc1	-4.7%
CC(C)C(C)C(O)C1CC23CC(=O)C4(O)C(=C2CCC3C1C)C=CC1(O)CC(O)CCC14C (stereo not drawn)	-12.9%[10 µM]

(cont.)
SMILES	nsP2pro inh
CCn1cc(C(=O)NCc2ccccc2Cl)c(=O)c2cc(S(=O)(=O)N3CCOCC3)ccc21	12.8%
Nc1ccc(Cl)cc1C(=O)c1ccc[nH]1	4.7%
O=C(Cn1cnc2c(oc3ccccc32)c1=O)Nc1ccccc1C(F)(F)F	-25.2%
CC1(C)CC[C@]23CO[C@@]4(CCC5[C@@]6(C)CC[C@H](O[C@@H]7OC[C@H](O[C@@H]8O[C@H](CO)[C@@H](O)[C@H](O)[C@H]8O[C@@H]8OC[C@@H](O)[C@H](O)[C@H]8O)[C@H](O)[C@H]7O)[C@@](C)(CO)C6CC[C@@]5(C)[C@]4(C)CC2=O)[C@@H]3C1 (stereo partly drawn)	-10.5%[5.1 µM]
O=C1C=CC(O)(/C=C/C(=O)OC[C@H]2O[C@@H](Oc3ccc(O)cc3)[C@H](O)[C@@H](O)[C@@H]2O)C=C1	36.0%[activator][10 µM]
Cc1cc(NS(=O)(=O)c2ccc(NC(=O)Cc3ccc(Cl)cc3)cc2)no1	-1.9%
CC(C)c1noc(-c2cn(C3CCN(C(=O)Cc4ccc(F)cc4)C3)nn2)n1 (stereo not drawn)	i
CN(C)CCCn1cc(C2=C(c3c[nH]c4ccccc34)C(=O)NC2=O)c2ccccc21	-3.0%
O=C(Nc1ccc2nc(SCc3ccccc3)sc2c1)c1ccccc1F	-13.5%
Cc1cccc(C(=O)Nc2ccc3ncnc(N4CCCCC4)c3c2)c1	33.7%[activator]
CCCN(C)C(=O)c1c(-c2ccc(F)cc2)noc1[C@H](C)O	-4.9%[39.2 µM]

Bioassay records (PubChem)

Only part of the results is shown, so the mix of outcomes need not match the whole.
